Source: PubChem BioAssay (National Center for Advancing Translational Sciences (NCATS))
NS1 inh = blocks influenza NS1 protein function | S. cerevisiae slowed by influenza A NS1, growth recovery by OD600 | Potency, µM (series often up to 46.1 µM), for the others: at the highest dose activity, positive = more growth | actives 0.4% (n = 270,000); active means well fitted rising curve with a large enough effect; inconclusive means small, poorly fitted or top-dose-only effect; inactive means no such curve, though single readings can be large or run the other way; further: nearly all actives have a fitted effect of over 50% in size
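OD600 was taken as the measure of yeast growth restored by compound in an NS1-expressing S. cerevisiae strain. Cells had been washed out of glucose medium and diluted 1:100 into galactose -URA medium, pH 6.0.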
Cruzain inh Det = inhibitors of Trypanosoma cruzi cruzain with detergent | P25779 | Potency, µM, for the others: max response, negative = inhibition, actives largely listed as inhibitors | actives 0.43% (n = 200,000) | purified cruzain, Z-FR-AMC fluorescence, 0.01% Triton;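 further: plate controls were neutral wells for no effect and buffer without enzyme for full effect; nearly all actives have a fitted effect of over 40% in size; top concentration of the series not given in the record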
Target sequence (P25779 123-467 limits assumed): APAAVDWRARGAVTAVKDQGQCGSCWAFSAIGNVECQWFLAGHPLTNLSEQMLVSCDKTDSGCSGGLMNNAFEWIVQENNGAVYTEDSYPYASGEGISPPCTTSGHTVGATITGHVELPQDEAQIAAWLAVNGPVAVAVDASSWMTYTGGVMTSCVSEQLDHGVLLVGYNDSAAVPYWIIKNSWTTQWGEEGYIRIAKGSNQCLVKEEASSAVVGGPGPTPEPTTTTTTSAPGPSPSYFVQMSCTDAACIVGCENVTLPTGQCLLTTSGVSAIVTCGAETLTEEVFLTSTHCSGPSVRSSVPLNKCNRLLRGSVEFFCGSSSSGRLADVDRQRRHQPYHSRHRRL
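Purified cruzain (1.5 nM final) was preincubated with compounds for 15 min at room temperature in 100 mM sodium acetate pH 5.5, 5 mM DTT, 0.01% Triton X-100. Reaction started with 2 uM Z-FR-AMC; AMC fluorescence change over 60 s gave activity.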
MARV entry inh = inhibitors of Marburg virus binding or cell entry | actives 1.8% (n = 300,000) | Potency, µM (series often up to 37.8 µM), for the others: at the highest dose activity change, negative = inhibition, actives largely listed as inhibitors | Marburg virus pseudotyped entry inhibition, cell reporter; control for the full effect not named in the record; about a third of the inactives were read at about 46 µM; active = well fitted inhibition curve with a large enough effect; inconclusive = small, poorly fitted or top-dose-only effect, or effect the other way; inactive = flat fitted curve, though single readings scatter; tested in HEK293 cells; about a fifth of its hits are not listed in these tables; further: on the % scale 0 is the no-effect control and ±100 the full control effect; luciferase read-out
RE007 growth inh = less growth of the S. pombe RE007 Vpr strain; S. pombe RE007 Vpr strain, BacTiter-Glo ATP luminescence, 24 h; control for the full effect not named in the record; Potency, µM (top dose mostly 92.2 µM), without a hit: at the top dose activity change, negative = less growth; actives 0.21% (n = 360,000); active = well fitted falling curve with a large enough effect; inconclusive = small, poorly fitted or top-dose-only effect; inactive = no such curve, though single readings can be large or run the other way;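 further: on the % scale 0 is the no-effect control and ±100 the full control effect; nearly all actives have a fitted effect of over 50% in size; the assay follows cell death caused by Vpr and the record does not say whether a fall means rescue or toxicity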
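Fission yeast strain RE007, carrying one chromosomally integrated HIV-1 vpr copy, was seeded at OD 0.01 in PMG+AL medium with 23 nL pinned compound. After 24 h at 30 °C and 99% humidity, viability was read by BacTiter-Glo luminescence.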
Lassa entry inh = inhibitors of Lassa virus binding or cell entry. AID 540256. Lassa virus pseudotype entry inhibition, cell reporter; control for the full effect not named in the record. actives 1.2% (n = 300,000). Potency, µM (top dose mostly 37.9 µM), for the others: top-dose activity change, negative = inhibition, most hits filed as inhibitors; active means well fitted inhibition curve with a large enough effect; inconclusive means small, poorly fitted or top-dose-only effect, or effect the other way; inactive means flat fitted curve, though single readings scatter; tested in HEK293 cells; further: on the % scale 0 is the no-effect control and ±100 the full control effect; nearly all actives have a fitted effect of over 50% in size; luciferase read-out
Cruzain inh noDet = blocks cruzain activity in detergent-free assay; P25779; purified cruzain, Z-FR-AMC fluorescence, no detergent; Potency, µM, without a hit: max response, negative = inhibition, hits mostly inhibitors; actives 2.3% (n = 200,000); AID 1476;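 further: plate controls were enzyme without inhibitor for no effect and buffer without enzyme for full effect; nearly all actives have a fitted effect of over 40% in size; top concentration of the series not given in the record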
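Purified cruzain at 1.5 nM, pre-incubated 15 min with compound at room temperature in 100 mM sodium acetate pH 5.5, 5 mM DTT, 0.00005% Triton X-100. Reaction started with 2 uM Z-FR-AMC; AMC fluorescence increase over 60 s gives rate.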
2A StopGo = lowers the luciferase signal of an FMDV 2A StopGo reporter. human cells with a luciferase reporter of 2A StopGo recoding; control for the full effect not named in the record. actives 1.2% (n = 410,000). Potency, µM (highest dose often 57.9 µM), for the others: at the highest dose signal change, negative = less light. AID 1159524; active = well fitted falling curve with a large enough effect; inconclusive = small, poorly fitted or top-dose-only effect; inactive = no such curve, though single readings can be large or run the other way; tested in HEK293T cells; further: on the % scale 0 is the no-effect control and ±100 the full control effect; nearly all actives have a fitted effect of over 45% in size; luciferase light after 4 h
SARS PLpro yeast = inhibitors of SARS-CoV papain-like protease in yeast | S. cerevisiae expressing SARS-CoV PLpro, growth rescue; control for the full effect not named in the record | Potency, µM (top dose mostly 32.9 µM), for inactives: at the highest dose activity, positive = growth rescue | actives 0.19% (n = 330,000) | AID 485353; active means well fitted rising curve with a large enough effect; inconclusive means small, poorly fitted or top-dose-only effect; inactive means no such curve, though single readings can be large or run the other way; further: 0% is about no effect; nearly all actives have a fitted effect of over 55% in size; growth read by luminescence after 48 h
Starred values were filed as active, the others as inactive; ? = inconclusive; . = not tested or not shown; & = joins results of further samples; [ ] = another dose, or the depositor's remark. Unless noted, the call rests on the fitted dose curve; in most records, active means well fitted curve in the direction sought with a large enough effect; inconclusive means small, poorly fitted or top-dose-only effect, or another doubt; inactive means no such curve, though single readings can be large; an effect the other way counts as inactive or inconclusive. Potency means the concentration at half of the fitted maximal effect.

mol	MARV entry inh	NS1 inh	Cruzain inh Det	Lassa entry inh	Cruzain inh noDet	RE007 growth inh	2A StopGo	SARS PLpro yeast
CCOC(=O)c1nn(-c2c(C)n(C)n(-c3ccccc3)c2=O)cc1O	-0.1%	3.5%	-4.0%	-1.7%	3.4%	4.5%	0.1%	-6.3%
O=C(NCCc1ccccc1)c1cc(-c2ccc(Cl)c(Cl)c2)on1	18.3%[46.1 µM]	.	-1.8%	-9.4%[46.1 µM]	0.4%	.	-1.7%	.
COC(=O)COc1ccc(C(=O)OC)cc1	?	-63.4%	-4.3%	-14.7%	1.9%	-0.5%	0.0%	-21.9%
CC(c1ccco1)N(C(=O)C12CC3CC(CC(C)(C3)C1)C2)c1ccccn1 (stereo not drawn)	?	-11.7%	-3.7%	11.2µM*	-9.0%	5.4%	15.7%	1.4%
COc1ccc(C(=O)NCC(c2ccc(N(C)C)cc2)N2CCCC2)c(OC)c1 (stereo not drawn)	.	.	0.0%	-14.4%[46.1 µM]	-4.6%	.	-14.6%	.
CCOc1ccc(NC(=O)Nc2cc(C)ccc2F)cc1	1.7%	-11.2%	-1.8%	-1.3%	-15.3%	-10.0%	63.4%[activator]	-8.5%
Nc1nc(NC(=O)/C=C/c2ccc(F)cc2)nn1-c1ccccc1	-0.8%	-2.9%	.	?	.	-8.3%	-6.5%	-0.1%
Cc1ccc(C2SCC(=O)Nc3c2c(=O)[nH]n3C2CCOC(C)(C)C2)cc1 (stereo not drawn)	-25.9%	8.7%	-5.8%	14.2%	4.2%	2.4%	0.4%	1.2%
Cc1c(C(=O)NC(C)C)oc2c1-c1[nH]ncc1CC2	-3.1%	-5.0%	-0.2%	?	11.5%	-1.6%	-22.0%	-2.7%
CCCCNc1nc2c(S(=O)(=O)c3ccc(C)cc3)nnn2c2ccsc12	.	.	1.7%	8.3%[46.1 µM]	5.4%	.	1.1%	.
CCOC(=O)c1nnn(CC(=O)NC(=O)Nc2ccccc2F)c1C(=O)OCC	?	.	-3.4%	?	-4.1%	.	?	.
O=C1CC(=O)N(CCc2ccc(F)cc2)C(=O)N1	15.8%	25.1%	-3.7%	7.0%	-5.2%	-5.0%	0.0%	-6.6%
CCn1cnc2cc([N+](=O)[O-])ccc21	?	.	.	20.7%[46.1 µM]	.	-7.8%	-9.8%	-6.5%
CCOc1ccc(C(=O)Nc2ccc(-c3nc4ccccc4[nH]3)cc2)cc1[N+](=O)[O-]	3.0%&3.0%	24.5%	-6.0%	1.3%	?	18.2%&14.2%	-7.5%	1.7%
CCOC(=O)c1sc(NC(=O)C(C)C)c(C#N)c1C	?	3.2%	.	-30.5%	.	-10.1%	-20.9%	1.5%
CC1(C)NC(=O)N(CC(=O)O)C1=O	-0.3%	5.9%	2.8%	2.1%	2.5%	11.7%	-17.8%	-1.0%
O=C(N/N=C/c1cc([N+](=O)[O-])ccc1O)c1cc(-c2ccccc2)nc2ccccc12	2.51µM*	7.2%	0.0%	8.91µM*	?	5.6%	-28.1%	.
CCOc1ccc(CCNC(=O)COC(=O)Cn2nc(C)c([N+](=O)[O-])c2C)cc1OCC	-14.1%	.	.	2.4%[46.1 µM]	.	-24.5%	1.1%	-3.9%
Nc1nc(SCC(=O)NNc2c(Cl)cc(Cl)cc2Cl)n[nH]1	-8.6%	-2.7%	-0.8%	-11.1%	-16.4%	-11.0%	0.0%	9.0%
COc1ccc([N+](=O)[O-])cc1NC(=O)C(C)OC(=O)c1cccnc1Cl (stereo not drawn)	4.5%[46.1 µM]	-1.3%	.	8.0%	.	6.0%	-21.6%	0.1%
Cc1ccc(C(=O)OCC(=O)Nc2ccccc2Sc2ccccc2)cc1C	5.9%	-1.8%	-3.2%	6.1%	-5.7%	21.7%	-16.6%	-17.3%
Cc1ccccc1Cn1c2ccccc2c2cnn(CC(=O)N3CCC(C)CC3)c(=O)c21	6.8%[46.1 µM]	.	-4.5%	-5.9%[46.1 µM]	23.9%	.	-24.7%	.
CCc1nnc(NC(=O)CC(C)c2ccccc2)s1 (stereo not drawn)	.	-16.4%	.	.	.	5.0%	-11.2%	-0.7%
COCCCNC(=O)CCCn1c(=O)c2ccccc2n(CC(=O)Nc2c(C)cc(C)cc2C)c1=O	-1.3%&4.6%	-10.1%	-0.2%	?	?	-15.9%	0.6%	23.2%
CN1C(=O)/C(=C/c2ccccc2OCc2ccccc2)NC1=S	?	8.7%	-7.6%	10.8%	-1.2%	-17.4%	-0.4%	?

3 compounds out of the list, sorted by SMILES length, low to high.
mol	MARV entry inh	NS1 inh	Cruzain inh Det	Lassa entry inh	Cruzain inh noDet	RE007 growth inh	2A StopGo	SARS PLpro yeast
CCn1cnc2cc([N+](=O)[O-])ccc21	?	.	.	20.7%[46.1 µM]	.	-7.8%	-9.8%	-6.5%
COCCCNC(=O)CCCn1c(=O)c2ccccc2n(CC(=O)Nc2c(C)cc(C)cc2C)c1=O	-1.3%&4.6%	-10.1%	-0.2%	?	?	-15.9%	0.6%	23.2%
O=C(N/N=C/c1cc([N+](=O)[O-])ccc1O)c1cc(-c2ccccc2)nc2ccccc12	2.51µM*	7.2%	0.0%	8.91µM*	?	5.6%	-28.1%	.

Taken from above for reference:
mol	MARV entry inh	NS1 inh	Cruzain inh Det	Lassa entry inh	Cruzain inh noDet	RE007 growth inh	2A StopGo	SARS PLpro yeast
COCCCNC(=O)CCCn1c(=O)c2ccccc2n(CC(=O)Nc2c(C)cc(C)cc2C)c1=O	-1.3%&4.6%	-10.1%	-0.2%	?	?	-15.9%	0.6%	23.2%
CN1C(=O)/C(=C/c2ccccc2OCc2ccccc2)NC1=S	?	8.7%	-7.6%	10.8%	-1.2%	-17.4%	-0.4%	?

Additional records follow.
mol	MARV entry inh	NS1 inh	Cruzain inh Det	Lassa entry inh	Cruzain inh noDet	RE007 growth inh	2A StopGo	SARS PLpro yeast
COC(=O)c1c(SC)nc2ccccc2c1OCc1ccc(Cl)cc1	.	.	-2.5%	-1.2%[46.1 µM]	-28.8%	.	-18.9%	.
CCCCCC(=O)Nc1nc(C)c(-c2csc(Nc3ccccc3OCC)n2)s1	.	7.8%	1.4%	.	7.94µM*	-11.8%	-13.5%	-2.6%
COc1ccc(OCC(=O)N2CCN(C(=O)c3ccc([N+](=O)[O-])cc3)CC2)cc1	?	-1.3%	.	?	.	-9.2%	-8.3%	-1.1%
CC1CCN(C(=O)COC(=O)c2cc(Cl)c3c(c2)OCO3)CC1	-1.5%	.	.	5.4%	.	2.1%	31.4%[activator]	10.8%
C=CC(=O)NCC1OCCc2ccccc21 (stereo not drawn)	-7.6%[46.1 µM]	3.0%	.	-0.9%	.	-15.7%	0.1%	0.4%
COc1cccc(/C=N/NC(=O)CNC(=O)c2ccc3c(c2)OCCO3)c1O	-27.8%	-9.4%	-5.4%	?	-1.8%	16.0%	-19.7%	21.6%
CC(=O)N1CCOc2ccc(S(=O)(=O)NC(C)c3ccccc3)cc21 (stereo not drawn)	.	11.4%	.	.	.	1.8%	-8.9%	-4.1%
COc1cc(/C=C2\SC(=S)N(C(C(=O)O)c3ccccc3)C2=O)ccc1O (stereo not drawn)	.	9.7%	.	.	.	-5.5%	2.0%	0.2%
CCOc1ccc(CCNC(=O)c2cc(-c3ccccc3)c(N3CCOCC3)s2)cc1OCC	.	-4.7%	.	.	.	0.9%	?	-7.8%
O=C(CN(Cc1ccco1)C(=O)CCC(=O)Nc1nccs1)NCc1ccccc1	-27.8%	-3.8%	-0.8%	-6.8%	0.0%	7.0%	0.0%	3.4%
CCC(=O)Nc1ccc(Cl)c(NC(=O)c2c(OC)cccc2OC)c1	-7.8%[46.1 µM]	-0.3%	.	7.9%[46.1 µM]	.	5.7%	-0.8%	-0.8%
N[C@@]1(C(=O)O)CC[C@H](C(=O)O)C1	12.1%&12.1%	.	1.1%&-1.3%&0.3%	.	-1.2%&0.7%&5.1%	.	-16.0%&-4.3%&-7.6%	.
CCC(Oc1ccccc1)C(=O)Nc1ccccc1N1CCCCC1 (stereo not drawn)	.	-10.9%	.	.	.	-2.8%	?	-2.4%
CCOC(=O)C1=NN(C(=O)Cc2ccccc2)C(O)(c2ccc(Cl)cc2)C1 (stereo not drawn)	?	-0.5%	-8.1%	?	4.5%	24.4%	-9.5%	5.8%
CCc1ccc(OCC(=O)N2CCN(CCc3ccncc3)CC2)cc1	?	.	-1.2%	16.5%[46.1 µM]	-0.2%	.	22.8%	.
O=C(Nc1nc2n(n1)C(c1ccccc1)CC(c1ccc(Cl)cc1)N2)c1ccco1 (stereo not drawn)	?	-6.8%	2.0%	-12.1%	?	-8.0%	?	0.2%
O=[N+]([O-])c1ccc(NN=Cc2cccc(O)c2)nc1	?	.	.	-22.6%[46.1 µM]	.	8.0%	31.6%[activator]	.
COc1ccc(C(=O)Nc2ccc(OCC(F)(F)C(F)F)c(C(F)(F)F)c2)cc1OC	?	21.7%	-2.0%	17.8µM*	-2.7%	-6.5%	?	-19.1%
O=c1cc(O)c2c(=O)[nH]c(=O)n(-c3ccccc3)c2[nH]1	?	2.5%	0.7%	5.3%	-4.5%	-15.2%	-13.3%	5.0%
O=C(COC(=O)c1ccccn1)Nc1nccs1	-8.6%	4.9%	7.5%	-6.6%	3.1%	-18.8%	-7.9%	-0.8%
COc1ccc(OCC(O)COc2ccc(C(=O)O)cc2)cc1 (stereo not drawn)	2.0%	-23.0%	6.5%	2.0%	-8.2%	-8.6%[3.69 µM]	-12.1%	0.7%
Cc1ccc(NS(=O)(=O)c2ccc(C(=O)NCc3ccc(S(N)(=O)=O)cc3)cc2)cc1	?	.	.	-1.7%	.	9.2%	-3.3%	1.3%
CN1CCN(NC(=O)c2ccc(Br)s2)CC1	.	-3.9%	.	.	.	-5.3%	-3.6%	2.8%
